# High-throughput results: PubChem, several laboratories
# PABP polyA inh: PABP poly(A) RNA binding inhibitors, primary screen, biochemical, fluorescence polarization, uHTS; Polyadenylate-binding protein 1 (Homo sapiens), P11940; 290,000 compounds, 1% hits; inhibition, % at 35 µM;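 active = 50% or more with normal probe brightness, or confirmed in later tests; about a fifth of its hits are not listed in these tables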;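 also: calls also rest on retests at 20 µM and on dose response follow-up; controls were probe without protein and protein plus probe with vehicle; some compounds called inactive have numbers as strong as hits; many hits fall short of the cut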
# Target sequence (P11940 whole entry, looked up): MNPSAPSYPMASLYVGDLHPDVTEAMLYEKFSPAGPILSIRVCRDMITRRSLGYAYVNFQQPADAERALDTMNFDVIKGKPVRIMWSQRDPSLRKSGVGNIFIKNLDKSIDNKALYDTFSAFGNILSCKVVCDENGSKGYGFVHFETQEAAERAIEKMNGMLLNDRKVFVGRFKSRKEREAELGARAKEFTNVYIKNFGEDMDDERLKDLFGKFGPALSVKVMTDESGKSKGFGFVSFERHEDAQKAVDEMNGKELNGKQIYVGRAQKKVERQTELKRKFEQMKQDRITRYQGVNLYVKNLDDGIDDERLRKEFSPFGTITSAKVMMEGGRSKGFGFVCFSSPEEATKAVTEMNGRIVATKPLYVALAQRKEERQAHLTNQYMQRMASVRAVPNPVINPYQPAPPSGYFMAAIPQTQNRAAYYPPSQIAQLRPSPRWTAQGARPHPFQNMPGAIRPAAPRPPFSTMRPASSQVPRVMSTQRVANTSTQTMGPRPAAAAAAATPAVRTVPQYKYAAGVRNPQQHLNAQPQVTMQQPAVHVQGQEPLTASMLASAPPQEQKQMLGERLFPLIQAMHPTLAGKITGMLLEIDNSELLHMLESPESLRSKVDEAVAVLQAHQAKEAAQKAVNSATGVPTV
# CSC inhib: cancer stem cell viability inhibitors, primary screen, luminescence; 300,000 compounds, 1.1% hits; cancer stem cell-like cells viability; inhibition, % at 7.5 µM; AID 2717, 2010;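 active = mean at 75% or more and at least half the replicates too; tested in HMLE shEcad cells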;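 also: 0% = median of negative and 100% = median of positive control wells; the first replicate is given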
# eIF4H inh: human eIF4H binding inhibitors, primary screen, translation initiation inhibitor project, biochemical, uHTS, fluorescence polarization; 290,000 compounds, 0.94% hits; Eukaryotic translation initiation factor 4H (Homo sapiens), Q15056; eIF4H fluorescence polarization binding assay; inhibition, % at 35 µM;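 active = 50% or more with normal probe brightness, or confirmed in later tests; about a fifth of its hits are not listed in these tables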;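 also: calls also rest on retests at 20 µM and on dose response follow-up; 0% = protein and probe with vehicle and 100% = probe without protein; strong numbers were not always called active; many hits fall short of the cut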
# Rce1 inh: yeast Rce1p protease inhibitors, primary screen, biochemical, fluorescence, cell-free homogeneous; CAAX prenyl protease 2 (Saccharomyces cerevisiae (strain ATCC 204508 / S288c)), Q03530; yeast membranes, quenched prenylated peptide cleavage fluorescence; calls only; 290,000 compounds, 0.27% hits;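 active = fall in fluorescence gain of 50% or more versus controls, with final raw signal at or below 3038400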;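 also: plate controls were neutral control wells for no effect and wells lacking membranes for full effect; tested at 10 µM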
# Env fusion inh: inhibitors of HIV-1 Env-driven cell-cell fusion, primary screen, HeLa-JRFL effector, CEM21 target cells, luciferase; 360,000 compounds, 1.1% hits; AID 651610, 2012; inhibition, % at 12.3 µM;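 active = mean replicate inhibition score of at least 50 and every replicate individually at or above 50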;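 also: 0% = plate neutral controls and 100% = maraviroc near 300 nM; one replicate is shown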
# MT1-MMP act inh: blockers of MT1-MMP proenzyme processing, primary screen, HT1080 RFP-PRO-GFP cells, GFP/RFP fluorescence. GFP/RFP ratio change, % at 20 µM. 360,000 compounds, 0.061% hits. Matrix metalloproteinase-14 (Homo sapiens), P50281. GFP/RFP ratio fluorescence, overnight; percent of plate control window, DMSO zero. AID 651647, 2012;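 active = GFP/RFP ratio change of at least 30% with cell ATP level not reduced by more than half and red fluorescence within 50% of control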; also: strong numbers were not always called active
#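 Material – HT1080 RFP-PRO-GFP cells · Control set – DMSO wells and RFP-L50D-GFP cells · Incubation – overnight cell settling, then overnight compound exposure, 37 °C, 5% CO2 · Compound dosing – single-point 20 µM compound, 1% DMSO · Read-out – GFP/RFP fluorescence ratio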
# UUG fidelity: modulators of yeast start codon fidelity, primary screen, whole organism, S. cerevisiae, single point, plate reader; activity score, % at 18.7 µM; S. cerevisiae UUG-firefly luciferase reporter, luminescence/redox ratio; 350,000 compounds, 0.13% hits;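 active = replicate mean at a twofold rise or more, about +100% in these data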;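 also: firefly luciferase made from a UUG start codon reports start codon fidelity; reporter light over untreated wells divided by growth signal over untreated wells; some hits fall short of that in this replicate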
# eIF4H inh retest: second read-out of eIF4H inh, no call of its own (marks repeat the call); inhibition, %; compound at 20 µM; confirmation average;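 mean of two retest wells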
# PABP polyA inh retest: further read-out of PABP polyA inh, marked with its call; inhibition, %; compound at 20 µM; confirmation repeats;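 mean of two retest wells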
# MT1-MMP act inh RFP: second read-out of MT1-MMP act inh, no call of its own (marks repeat the call); RFP signal change, %; measured here: RFP expression control read;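 0 = vehicle wells; hits needed this value within 50% of zero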
# * = called active by the depositor; i = inactive; · = not tested or not shown.
SMILES,PABP polyA inh,CSC inhib,eIF4H inh,Rce1 inh,Env fusion inh,MT1-MMP act inh,MT1-MMP act inh RFP,UUG fidelity,others
COc1ccc(NC(=O)c2ccc(NC3=NC4CS(=O)(=O)CC4S3)cc2)cc1 (centres undefined),-10,-10,-10,i,-26,-4,1,-21,
Cc1nn(C)c(C)c1C1C(C#N)=C(N)OC2=C1C(=O)CCC2 (centres undefined),3,-9,8,i,·,2,3,·,
CC1=NOC(=O)/C1=C\c1ccc(-c2ccccc2Br)o1,-10,·,67,i,-296,-21,-2,·,eIF4H inh retest=-9;PABP polyA inh retest=19
COc1ccc(NC(=O)Nc2ccon2)c(OC)c1,5,-5,0,i,-27,1,6,·,
COc1ccc(CCNC(=O)c2cc(=O)[nH]c3ccc(Br)cc23)cc1OC,-11,·,-6,i,-23,2,-3,-23,
O=C(c1ccc(C(=O)N2CCN(c3ccccc3F)CC2)nc1)N1CCN(c2ccccc2F)CC1,9,·,-5,i,2,-1,-3,-15,
COc1ccccc1N1CCN(C(=O)CCn2c(=O)[nH]c3ccccc3c2=O)CC1,10,-10,0,i,-12,3,1,-5,
CCOC(=O)Nc1ccc2c(c1)N(C(=O)CCN1CCN(CCO)CC1)c1ccccc1S2,·,-7,·,i,·,-3,1,-6,
Cc1ccc(S(=O)(=O)N2CCN(C(=O)c3ccc4nc[nH]c4c3)CC2)cc1,·,-7,·,i,-28,2,-3,-12,
COc1ccc(N2C(=O)N3[C@H](c4ccc(Br)cc4)[C@@H]4C(=O)N(C(C)(C)C)C(=O)[C@@H]4[C@]3(Cc3ccccc3)C2=O)cc1,-5,-3,-2,i,26,0,-1,-13,
CC(C)C(=O)Nc1cccc(S(=O)(=O)c2cccc(NC(=O)C(C)C)c2)c1,0,-2,3,i,·,·,·,-11,
COCCNC(=O)CN(C(=O)CCC(=O)Nc1ccccn1)c1ccccc1OC,8,-15,-4,i,-6,-4,-3,30,
O=C1C(Cl)=C(Nc2ccccc2)C(=O)c2ccccc21,-18,112*,11,i,-199,-24,-35,-22,
COc1ccccc1CNC(=O)COC(=O)c1ccco1,·,-10,·,·,-6,3,-1,-8,
Cc1cccc(OCC(=O)Nc2ccccc2N2CCCCC2)c1,-9,30,-14,i,12,-1,-10,-17,
CC(O)Cn1nc([N+](=O)[O-])nc1N (centres undefined),9,5,1,i,2,1,4,-17,
Cc1cccc(N2C(=O)CN(Cc3cccs3)C2=S)c1,-3,-9,-2,i,14,-7,2,-13,
CSc1ccccc1NC(=O)CN(C)C(C)C(=O)NC(=O)NC1CCCCC1 (centres undefined),·,-7,·,i,-37,-3,-2,·,
c1ccc(Nc2cc(-c3ccccc3)nc3ncnn23)cc1,-1,-5,-10,i,·,-4,-5,·,
CC(OC(=O)CCc1nc2ccccc2c(=O)[nH]1)C(=O)c1ccc(Br)cc1 (centres undefined),-11,·,-2,i,·,0,3,-6,
Brc1cc2c(cc1Br)OCCOCCOCCOCCO2,-4,-7,-9,i,7,-3,-2,·,
COc1ccc(NC(=O)c2ccc3c(SCC(=O)O)c4c(nc3c2)CCCC4)cc1Cl,2,12,-3,i,5,·,·,·,
CCOc1ccc(/C=N/NC(=O)c2cc(-c3ccccc3)nc3ccccc23)cc1O,-4,-5,-13,i,8,6,5,-17,
CCOC(=O)c1cc2c(ccn2C)n1Cc1ccccc1C,-10,13,7,i,·,-5,-3,-20,
O=C(CNC(=O)c1ccccc1)N/N=C/c1ccc([N+](=O)[O-])o1,-3,-8,60,i,7,-8,-1,·,eIF4H inh retest=1;PABP polyA inh retest=10
Cn1cnc(C(=O)N2CCN(C(=O)OC(C)(C)C)CC2)c1C(=O)N1CCN(C(=O)OC(C)(C)C)CC1,·,7,·,·,-27,3,3,-6,
O=C(Nc1cnccn1)c1cccc(C(F)(F)F)c1,-9,-13,-3,i,-15,4,0,-18,
O=C(Cn1cc(F)c(=O)[nH]c1=O)NCCO,16,·,-11,i,3,0,2,-10,
COCCNC(=O)/C(C#N)=C/c1ccc(SC)cc1,4,-7,-4,i,-13,3,4,-10,
O=C(NCC1CCCN(C(=O)c2cccnc2)C1)c1ccc(-c2ccccc2)cc1 (centres undefined),7,-3,3,i,10,0,-4,·,
O=C(NCCCN1CCCC1=O)c1ccc2c(c1)NC(=O)C(N1CCOCC1)S2 (centres undefined),-5,·,-9,i,·,4,5,7,
CCOC(=O)C1=C(C)Nc2ncnn2C1c1cc(Br)ccc1F (centres undefined),-12,10,-6,i,·,5,-12,·,
CC(C)(C)OC(=O)N1CCc2onc(-c3ccc(Cl)cc3)c2C1=O,·,·,·,·,-16,7,-3,1,
O=c1[nH]c2cc(O)ccc2c2ccccc12,·,·,·,·,-214,0,-1,-13,
Cc1cccc(C(=O)NC(=S)NNC(=O)COc2ccc(Cl)cc2)c1,-11,·,11,i,4,6,5,-33,
CCOc1ccc(CN2CCN(Cc3nc4c(s3)CCCC4)CC2CCO)cc1 (centres undefined),-6,-3,0,i,6,-2,2,·,
Cc1ccc(C2(C)NC(=O)N(CC(=O)Nc3ccc4[nH]c(=O)[nH]c4c3)C2=O)cc1 (centres undefined),-6,1,33,·,-26,3,2,·,
CCOc1cc2[nH]c(=O)n(CCc3ccc(OC)c(OC)c3)c(=O)c2cc1OCC,-6,-3,-9,·,-22,-4,0,-20,
CN(C)CCCN(C(=O)CCOc1ccccc1)c1nc2c(F)cccc2s1,-4,·,7,i,13,-4,-1,·,
COc1ccccc1/C=N/NC(=O)Cn1cnc([N+](=O)[O-])n1,-5,-16,-1,i,-14,-2,3,·,
CCOP(=O)(OCC)C(NC(=O)Nc1ccc(Cl)cc1)C(N)=O (centres undefined),2,·,-7,i,-1,-1,4,·,
CCc1ccccc1NC(=O)CCS(=O)(=O)c1ccc2c(c1)CCCN2C(C)=O,21,15,16,i,5,-1,-6,-7,
Cc1ccc(-c2cc(C(F)F)nc3sc4c(=O)[nH]cnc4c23)cc1,·,-6,·,·,·,0,3,-7,
Cc1cccc(-c2nnc(SCC(=O)Nc3cc(C)on3)n2C)c1,0,4,0,i,1,2,3,-5,
Cc1ccc(-c2c(NC(=O)C(C)C)n(C)c3ccccc3c2=O)cc1,6,-3,20,i,-2,2,6,0,
CCC(=O)N1CCc2cc(Br)cc(S(=O)(=O)NCCN3CCCCC3CC)c21 (centres undefined),-1,13,-4,·,-80,1,7,-11,
Cc1ccc(OCC(=O)O/N=C(\N)Cc2ccc(Cl)cc2)cc1,6,-13,-1,i,-33,0,0,-18,
CCOC(=O)C(Cc1ccccc1)NS(=O)(=O)c1ccc(NC(C)=O)cc1 (centres undefined),-12,-8,-11,i,0,7,-1,10,
COc1ccc([N+](=O)[O-])cc1N(CC(=O)Nc1ccccc1C(=O)N1CCOCC1)S(C)(=O)=O,-6,-16,-13,i,0,0,1,-28,
CCOc1ccc(/C(O)=C2/C(=O)C(=O)N(CC3CCCO3)C2c2ccco2)cc1 (centres undefined),2,0,12,i,-40,4,4,-19,
O=C(Nc1nc2nccc(-c3ccccc3)n2n1)c1ccc(F)cc1,-1,·,-4,i,6,3,5,-3,
O=S(=O)(c1c(Cl)sc(Cl)c1Br)N1CCCC1,6,-9,1,i,-9,1,-2,·,
COc1ccc(C2CC(c3cccs3)=NN2S(=O)(=O)c2ccc(C)cc2)cc1 (centres undefined),·,6,·,i,-26,4,-1,-15,
Cc1cc(NC(=O)C(C)N2C(=O)c3ccccc3S2(=O)=O)no1 (centres undefined),·,-5,·,i,9,3,5,-3,
COCCNC(=O)CSc1nc2cc(OC)c(OC)cc2c(=O)n1Cc1ccco1,3,-4,-6,i,-27,7,2,1,
CCc1nc2ccc(C(=O)Nc3ccc(C(=O)N(C)C)cc3)cn2c1N(C)CCCc1ccccc1,·,·,·,·,37,3,1,-7,
O=C(c1ccco1)N1CCN(C(=O)c2nn3cccnc3c2Cl)CC1,0,-5,-1,i,1,5,-1,-10,
COc1ccc(OC)c(NC(=O)C2CCN(S(=O)(=O)c3c(C)noc3C)CC2)c1,5,3,-4,·,·,5,-1,-4,
COc1ccccc1C(=O)Nc1sc(C(=O)N2CCCC2)c(C)c1C#N,1,·,-7,i,5,0,4,·,
Cc1cccc(N2CCN(CC(=O)Nc3ccc(S(=O)(=O)N4CCOCC4)cc3)CC2)c1C,5,10,-2,i,16,-4,-26,-9,

# Of the compounds above, these have a tert-butyl group.
SMILES,PABP polyA inh,CSC inhib,eIF4H inh,Rce1 inh,Env fusion inh,MT1-MMP act inh,MT1-MMP act inh RFP,UUG fidelity,others
COc1ccc(N2C(=O)N3[C@H](c4ccc(Br)cc4)[C@@H]4C(=O)N(C(C)(C)C)C(=O)[C@@H]4[C@]3(Cc3ccccc3)C2=O)cc1,-5,-3,-2,i,26,0,-1,-13,
Cn1cnc(C(=O)N2CCN(C(=O)OC(C)(C)C)CC2)c1C(=O)N1CCN(C(=O)OC(C)(C)C)CC1,·,7,·,·,-27,3,3,-6,
CC(C)(C)OC(=O)N1CCc2onc(-c3ccc(Cl)cc3)c2C1=O,·,·,·,·,-16,7,-3,1,

# The listing continues.
SMILES,PABP polyA inh,CSC inhib,eIF4H inh,Rce1 inh,Env fusion inh,MT1-MMP act inh,MT1-MMP act inh RFP,UUG fidelity,others
COc1ccc(NC(=O)C(C)Sc2nnc3c4c(nc(-c5ccc(OC)cc5)n23)CC(C)(C)OC4)cc1 (centres undefined),4,3,-8,i,-15,-3,-4,·,
COc1ccc(C=NNc2nc3ccccc3s2)cc1,·,·,·,·,-201,-3,-1,-34,
CCN1CCN(S(=O)(=O)c2ccc(C(=O)Nc3sc4c(c3C(N)=O)CCN(CC)C4)cc2)CC1,-3,-5,-12,i,-12,-17,2,1,
Cn1c(CN2CCCCC2)nc2cc(NC(=O)c3ccccc3Cl)ccc21,-2,-13,-8,i,·,6,-1,-16,
Cc1ccc(NC(=O)C2(C)CCN2C(=O)Cc2ccc(-c3ccccc3)cc2)cc1 (centres undefined),·,·,·,·,15,-2,-25,-22,
O=C(NCC1CCOCC1)c1ccc(-c2ccc(F)c(F)c2)c2ccoc12,·,·,·,·,i,0,-14,-3,
CS(=O)(=O)Nc1ccc(C(=O)Nc2ccccc2C(=O)N2CCCC2)cc1,0,-3,0,·,-58,1,4,-15,
O=C(C/C=N\OCc1ccc(Cl)cc1Cl)Nc1ccccc1,-3,-1,22,i,-1,1,-1,·,
C=CCC[C@H](Cc1ccc(F)cc1)C(=O)O[C@H](CNC(=O)[C@@H](CC=C)CC(=O)N(CCO)Cc1ccccc1)c1ccccc1,·,97*,·,·,129*,-34,-34,7,
O=C(CCCOc1ccccc1)NCc1ccco1,3,-3,-8,i,-51,7,5,-18,
COC1OC2COC(c3ccccc3)OC2C(=O)C1NC(=O)c1ccccc1 (centres undefined),·,·,·,·,-14,0,0,-14,
Cc1cccc(C)c1OCC(=O)NNC(=O)CCNC(=O)c1ccc(Br)cc1,13,-1,-12,i,-46,3,0,15,
CC(C)(C)C(=O)N1NC(=Nc2ccccc2)SC1(C)C,-6,36,-2,i,19,-1,-11,-12,
CCc1cc2c(C)ccc(C)c2nc1SCC(=O)Nc1c[nH]c(=O)[nH]c1=O,-3,24,-16,i,-19,0,1,·,
CCOC(=O)N1CCN(C(=O)c2ccc3c(c2)NC(=O)/C(=C\c2ccc(OC)c(OC)c2)S3)CC1,12,4,24,i,12,2,-5,10,

# An excerpt. The share of hits here may be higher or lower than overall.
